Bioassay records as filed in PubChem BioAssay.
CtBP-E1A inh: inhibitors of CtBP/E1A interaction; AlphaScreen GST-E1A/His-CtBP binding, 1536-well; stronger effect = lower value; control for the full effect not named in the record; activity change, % (test concentration not listed); 0.49% of 340,000 active; in the data active means activity change below about -65%; inconclusive means about -30% to -65%; inactive means above about -30%; further: on the % scale 0 is the no-effect control and ±100 the full control effect; compound concentration not given in the record
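GST-E1A and His-tagged CtBP (125 nM each as 5X stock) were preincubated with pin-transferred compound for 2 h at 37 °C in the dark, then glutathione donor and nickel acceptor beads were added for 1 h before AlphaScreen reading.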
TRPML1 inh: inhibitors of human TRPML1 channel | 0.02% of 390,000 active | activity change, negative = inhibition, % (no concentration beside the values) | AID 624415 | TRPML1-inducible cells, Ca2+ dye fluorescence, FDSS; stronger effect = lower value; inhibition of EC80 agonist-evoked calcium signal; in the data active means activity change below about -50%; inconclusive means about -30% to -50%; inactive means above about -30%;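 further: stimulus is agonist 54-4 at its EC80 concentration; on the % scale 0 is the no-effect control and ±100 the full control effect; compound concentration not given in the record; the text of the record puts the active cut at -80%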
Target sequence (Q9GZU1 whole entry, looked up): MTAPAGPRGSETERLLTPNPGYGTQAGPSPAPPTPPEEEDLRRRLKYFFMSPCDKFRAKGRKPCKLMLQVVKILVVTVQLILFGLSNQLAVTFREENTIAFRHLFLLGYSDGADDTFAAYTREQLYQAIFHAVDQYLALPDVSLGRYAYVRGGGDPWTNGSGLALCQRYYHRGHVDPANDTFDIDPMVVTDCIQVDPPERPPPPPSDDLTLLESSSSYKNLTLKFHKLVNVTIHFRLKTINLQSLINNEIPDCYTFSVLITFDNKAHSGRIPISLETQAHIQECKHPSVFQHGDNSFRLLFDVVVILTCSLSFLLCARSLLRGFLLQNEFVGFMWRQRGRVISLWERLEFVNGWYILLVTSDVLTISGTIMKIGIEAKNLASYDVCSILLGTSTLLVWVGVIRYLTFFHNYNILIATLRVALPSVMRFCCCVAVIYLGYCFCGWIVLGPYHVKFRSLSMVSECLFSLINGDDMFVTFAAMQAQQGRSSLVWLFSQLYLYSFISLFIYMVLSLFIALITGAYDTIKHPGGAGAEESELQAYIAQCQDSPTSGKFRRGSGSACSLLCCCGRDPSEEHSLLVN
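Calcium fluorescence in TRPML1-DL cells induced overnight with Tet: a 110 s read after compound pin addition, then a 110 s antagonist read after challenge with 54-4 at 4 uM final (EC80).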
D2 ag: activates the human D2 dopamine receptor; 0.084% of 360,000 active; activation, % (no concentration beside the values); AID 624465; DiscoveRx PathHunter D2 beta-arrestin, luminescence, 90 min; 100% = 57 uM dopamine signal; P14416; in the data active = activation above about 40%; inconclusive = about 15% to 40%; inactive = below about 15%; further: compound concentration not given in the record; the text of the record calls up to 30% inactive
Target sequence (P14416 whole entry, looked up): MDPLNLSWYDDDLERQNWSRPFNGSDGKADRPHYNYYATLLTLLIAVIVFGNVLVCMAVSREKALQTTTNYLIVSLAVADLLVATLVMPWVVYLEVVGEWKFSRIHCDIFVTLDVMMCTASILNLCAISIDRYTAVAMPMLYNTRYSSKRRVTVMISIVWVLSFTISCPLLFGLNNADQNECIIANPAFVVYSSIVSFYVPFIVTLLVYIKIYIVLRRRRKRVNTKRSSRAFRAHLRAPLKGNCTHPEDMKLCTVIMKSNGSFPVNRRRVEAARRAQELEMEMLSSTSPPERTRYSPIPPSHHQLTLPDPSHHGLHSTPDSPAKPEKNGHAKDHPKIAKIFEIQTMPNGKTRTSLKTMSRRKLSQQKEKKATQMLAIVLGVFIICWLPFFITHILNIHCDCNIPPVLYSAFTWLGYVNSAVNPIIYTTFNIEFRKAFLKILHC
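DiscoveRx PathHunter D2 beta-arrestin cells (2,100/well) attached overnight, then compound-stimulated 90 min at 37 C in HBSS/10 mM HEPES/0.1% Tween-20 buffer; beta-galactosidase complementation read by luminescence after 1 h at ambient temperature. Dopamine 57 uM final (EC100) as control.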
Six1-Eya2 inh: inhibitors of human Six1/Eya2 interaction. Q15475+O00167. AlphaScreen GST-Six1/His-Eya2 binding, biochemical; stronger effect = lower value; control for the full effect not named in the record. activity change, % (no concentration beside the values). 0.56% of 360,000 active. AID 651725; in the data active = activity change below about -65%; inconclusive = about -30% to -65%; inactive = above about -30%; further: on the % scale 0 is the no-effect control and ±100 the full control effect; compound concentration not given in the record
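AlphaScreen luminescence read after one hour at 37 °C in darkness. Pin-transferred compounds met GST-Six1 and His-Eya2 protein (5X stock 250 nM/500 nM) plus glutathione donor and Ni-chelate acceptor beads (5X, 50 ug/mL).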
PINK1 expr mod: modulators of PINK1 expression. Potency, µM (top dose mostly 76.6 µM), for the others: top-dose activation (PINK1 increase), usual class: activators. 0.2% of 410,000 active. PINK1 immunofluorescence, high-content cytometry, 24 h. AID 624263; active = well fitted activation curve with a large enough effect; inconclusive = small, poorly fitted or top-dose-only effect; inactive = flat fitted curve, though single readings scatter; cell line not stated here;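 further: potency means the concentration at half of the fitted maximal effect; % of control where 0% means no effect; nearly all actives have a fitted effect of over 65% in size; a mitochondrial uncoupler was the plate control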
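Compound titrations (5 concentrations, 24 h) on a stable cell line; DMSO and CCCP controls. Endpoint: fixed-cell PINK1 immunofluorescence with mitochondrial, cell and nuclear markers, scanned by microplate cytometer.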
TRPML1 agonist: agonists of human TRPML1 channel. TRPML1-expressing cells, Ca2+ dye fluorescence, FDSS; host cell line not named in the record; reference of the full effect not given here. activation, % (test concentration not listed). 0.12% of 410,000 active. AID 624414; in the data active = activation above about 50%; inconclusive = about 30% to 50%; inactive = below about 30%; further: 0% is about no effect; the text of the record puts the active cut at 80%
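In this qHTS format, compounds were pin-transferred onto Ca8-dye-loaded TRPML1-DL cells induced with Tet overnight, and intracellular Ca2+ fluorescence was recorded kinetically for 110 s after a 10 s baseline. A subsequent 4uM final 54-4 (EC80) addition followed by a second 110 s read served as the antagonist phase.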
Starred values were filed as active, the others as inactive; ? = inconclusive; . = no result given; [ ] = another dose, or the depositor's remark.

SMILES | CtBP-E1A inh | TRPML1 inh | D2 ag | Six1-Eya2 inh | PINK1 expr mod | TRPML1 agonist
O=C1NC(c2ccncc2)Nc2sc3c(c21)CCCC3 (stereo unspecified) | 1 | 1 | -3.2 | -4 | 0.3% | -0.2
CCN1CC=C2C(C#N)=C(N)C(C#N)(C#N)[C@H](c3ccoc3)[C@H]2C1 | -13 | 30 | 6.9 | -26 | 40µM* | 1.4
Cc1ccc(C)c(C(=O)OCC(=O)Nc2cccc(S(=O)(=O)N3CCCCC3)c2)c1 | -6 | 2 | 3.8 | -8 | 3.3% | 2.2
N#CCN(C(=O)CSc1nnc(C2CC2)n1C1CC1)c1ccccc1 | -13 | 6 | 0.4 | 8 | 0.4% | -0.5
COc1ccc(NC(=O)CC2CCCCC2)cc1OC | 6 | 2 | -2.4 | -2 | 2.0%[38.3 µM] | 1.6
Cc1ccc(S(=O)(=O)N(C)CC(=O)NCCCn2ccnc2)cc1 | 3 | -10 | 3.2 | 12 | 1.4% | -0.5
Cc1ccc(C2=Nc3ccccc3N(CC(=O)NCc3ccccc3Cl)C(=O)C2)cc1C | . | 0 | . | . | 1.5% | 0.2
CC(=O)c1cccc(-c2ccc3c(c2)C(C)(Cc2ccc(S(C)(=O)=O)cc2)C(=O)N3)c1 (stereo unspecified) | -17 | . | -1.4 | 2 | 1.8% | -1.0
COc1ccc(CCN2C(=O)c3[nH]nc(-c4ccccc4O)c3C2c2cccc(Cl)c2)cc1 (stereo unspecified) | -13 | -7 | 12 | -12 | 2.9% | -0.2
OC(c1cccc(Cl)c1)c1nc(-c2cnc3ccccc3c2)cs1 (stereo unspecified) | -1 | . | 4.7 | -9 | 29% | -0.1
Cc1ccc(S(=O)(=O)NCCCNS(=O)(=O)c2ccccc2Br)cc1 | -2 | 21 | 0.8 | 0 | 0.3% | -0.2
CCC(=O)c1ccc(N2CCN(C(=O)c3cc([N+](=O)[O-])ccc3F)CC2)c(F)c1 | 6 | 22 | 5.9 | -5 | -0.5% | -1.0
CC1CCN(c2nc(-c3ccccc3)cc(C(F)(F)F)n2)CC1 | 58 | -10 | -1.3 | 52 | 7.0% | 0.0
CCC(C(=O)NCc1cc(OC)ccc1OC)n1nc(C)c2sc3ccccc3c2c1=O (stereo unspecified) | . | 10 | . | . | 0.4% | 1.0
O=C(O/N=C1\C(=O)N(c2ccccc2)c2ccccc21)C1CC1 | 17 | -12 | -18 | 4 | -0.2% | -0.4
CCOC(=O)c1ccccc1NC1c2ccccc2C(=O)N1c1cc(C)ccn1 (stereo unspecified) | 0 | 8 | -5.8 | -1 | 3.4% | 0.6
COC(=O)c1ccsc1NC(=O)CS(=O)(=O)c1ccccc1 | -1 | 1 | -0.8 | 6 | -0.2% | 1.1
NC(=O)CC(NC(=O)Cc1cccc2ccccc12)c1ccc(NCc2ccccn2)c([N+](=O)[O-])c1 (stereo unspecified) | -9 | -4 | -3.6 | -16 | 1.8% | 0.7
CN(CC(=O)NCc1ccco1)S(=O)(=O)c1ccc(F)cc1 | 2 | 15 | -2.6 | -1 | -1.6% | -0.1
O=C(C1CCCN1S(=O)(=O)c1cccc2nsnc12)N1CCN(c2ccccc2)CC1 (stereo unspecified) | 1 | 9 | 2.7 | 0 | 1.6% | -0.5
CCN(CC)C(=O)Cn1nnc(-c2ccc(C)o2)n1 | 2 | 4 | -5.6 | 2 | 0.3% | 0.1
Cc1ccc(NC(=O)C2CCCN2S(=O)(=O)c2ccc3c(c2)CCCC(=O)N3)cc1C (stereo unspecified) | . | -1 | . | . | 1.2% | -0.9
C[C@@H]1COc2cccc(N(C)CCO)c2S(=O)(=O)N1 | 5 | . | . | 3 | -0.9% | -0.3
CCCCCC(=O)Nc1ccc(N2CCOCC2)c(S(=O)(=O)Nc2ccc(OC)cc2)c1 | 4 | 22 | 0.6 | 1 | -1.5% | 0.1

Molecules listed so far that contain a furan ring, fused or not:
SMILES | CtBP-E1A inh | TRPML1 inh | D2 ag | Six1-Eya2 inh | PINK1 expr mod | TRPML1 agonist
CCN1CC=C2C(C#N)=C(N)C(C#N)(C#N)[C@H](c3ccoc3)[C@H]2C1 | -13 | 30 | 6.9 | -26 | 40µM* | 1.4
CN(CC(=O)NCc1ccco1)S(=O)(=O)c1ccc(F)cc1 | 2 | 15 | -2.6 | -1 | -1.6% | -0.1
CCN(CC)C(=O)Cn1nnc(-c2ccc(C)o2)n1 | 2 | 4 | -5.6 | 2 | 0.3% | 0.1

Remaining list, next part.
SMILES | CtBP-E1A inh | TRPML1 inh | D2 ag | Six1-Eya2 inh | PINK1 expr mod | TRPML1 agonist
Cn1c(C(=O)OC(C(=O)NC(C)(C)C)c2cccnc2)cc2sccc21 (stereo unspecified) | 4 | -3 | -1.7 | 3 | 2.5% | 1.4
COc1ccccc1NC(=O)Cn1c(=O)oc2ccccc21 | -1 | 41 | -0.6 | 4 | -1.4%[38.3 µM] | 2.5
CCOC(=O)CN1C(=O)CCSc2ccc(Cl)cc21 | 7 | -3 | 2.7 | 8 | -0.7% | -0.2
CC(CCN1CCN(c2ccccc2)CC1)c1ccccc1 (stereo unspecified) | -30 | -7 | 6.0 | -19 | 4.5% | 0.6
O=C(N/N=C/c1cc(Br)cs1)c1ccc2c(c1)OCCO2 | -4 | 33 | -5.4 | -1 | 2.3% | 1.5
Cc1ccc(S(=O)(=O)N2CCOC23CCN(C(=O)c2ccccc2Br)CC3)cc1 | . | 31 | -1.6 | -4 | 1.5% | 0.5
Cc1nn(-c2ccccc2)c(Cl)c1/C=N/NC(=O)c1ccccc1NS(=O)(=O)c1cccs1 | -21 | 3 | 2.0 | -10 | 5.0% | 3.1
CCOCCCNC(=O)c1cn(CC(C)C)c(=O)c2cc(OC)c(OC)cc12 | 0 | -4 | -2.6 | 8 | 0.9% | -0.5
COC(=O)c1sc(NC(=O)c2c(-c3ccccc3)noc2C)nc1C | -13 | 20 | -5.1 | -1 | 0.3% | 1.9
CC(C)N(C(=O)[C@H]1C[C@H](CC(=O)NCc2cccc(C(F)(F)F)c2)C(=O)N2CCc3c([nH]c4ccc(Cl)cc34)[C@]12C)C(C)C | 8 | 9 | -0.7 | 0 | ? | -0.2
O=C(Nc1c(C(=O)O)oc2ccc(Br)cc12)c1ccccc1 | 7 | -11 | 3.3 | -19 | 1.7% | 0.3
N#Cc1cnc(NN)nc1 | -29 | 6 | -8.0 | -25 | 0.2% | 0.0
Cc1cc(NC(=O)CN2CCCCCCC2)no1 | -8 | -9 | -1.1 | -6 | . | -0.3
CCc1ccccc1NC(=O)CSc1nnc(-c2ccncc2)o1 | -1 | 39 | -4.0 | 0 | 1.7% | -0.2
COc1ccc(OCC(=O)NCCc2c[nH]c3ccccc23)cc1 | -2 | -11 | 0.3 | -7 | -0.4% | -0.5
COc1ccccc1CNC(=O)CCCCn1c(=O)c2ccccc2n(CC(=O)Nc2cc(Cl)ccc2C)c1=O | . | 21 | . | . | 5.9% | 0.0
Cc1cccc(Nc2cc(C)c3c(O)cccc3n2)c1C | -7 | -9 | 0.2 | -10 | 10.0% | 0.2
O=C(NC12CC3CC(CC(C3)C1)C2)N1CCN(c2ccccc2)CC1 | -6 | -25 | 0.3 | -9 | 1.5% | 1.8
CC1(C)Cc2c(c(N3CCOCC3)nc3sc(C(N)=O)c(N)c23)CO1 | 0 | -13 | -3.7 | 9 | -1.5% | -0.3
CC(=O)c1c(C(C)=O)c(C)n(-c2ccc3ncccc3c2)c1C | -10 | -11 | -5.6 | 2 | -0.3% | -1.2
NC(CCc1ccccc1)c1csc(Nc2cnccn2)n1 (stereo unspecified) | -67* | . | 3.3 | ? | 6.4% | -0.3
COc1ccc(/C=C/C(=O)NC2CCS(=O)(=O)C2)cc1 (stereo unspecified) | 3 | 8 | -7.3 | -10 | -0.8% | 0.3
Cc1ccc(F)c(S(=O)(=O)NC(=O)C2(C)CCN2C(=O)Cc2cccc3ccccc23)c1 (stereo unspecified) | 0 | . | 4.9 | 1 | 0.4% | -0.1
COc1ccc(NC(=O)C2=CC(c3ccc(OC)cc3)=NS(=O)(=O)N2C)cc1 | 0 | 0 | 0.4 | -18 | -0.4% | 0.9

Random excerpt: two records from the list.
SMILES | CtBP-E1A inh | TRPML1 inh | D2 ag | Six1-Eya2 inh | PINK1 expr mod | TRPML1 agonist
NC(CCc1ccccc1)c1csc(Nc2cnccn2)n1 (stereo unspecified) | -67* | . | 3.3 | ? | 6.4% | -0.3
Cc1ccc(F)c(S(=O)(=O)NC(=O)C2(C)CCN2C(=O)Cc2cccc3ccccc23)c1 (stereo unspecified) | 0 | . | 4.9 | 1 | 0.4% | -0.1

Further entries
SMILES | CtBP-E1A inh | TRPML1 inh | D2 ag | Six1-Eya2 inh | PINK1 expr mod | TRPML1 agonist
O=c1ccc2c(-c3ccccc3)c3ccc(O)cc3oc-2c1 | 14 | ? | 1.3 | 10 | 0.2% | 139*
COc1ccccc1-n1cnnc1SCC(=O)c1ccc[nH]1 | 2 | 10 | -4.3 | 0 | -1.9% | -0.5
Cc1cccc([C@@H]2C[C@H]3CN(Cc4cccc(Cl)c4)C(=O)[C@]34CCCN24)n1 | 1 | 33 | 3.8 | 1 | 1.8% | -0.1
CCCc1cc(C(=O)Nc2ccc(C(=O)c3ccc(C)cc3)cc2)n(C)n1 | 0 | 15 | -3.8 | -2 | 8.2% | 2.9
OCCN1CCN(c2nnc(-c3ccccc3)c3ccccc23)CC1 | 0 | . | -9.0 | -3 | -1.0% | .
COC(=O)c1c(NC(=O)COC(=O)CCS(=O)(=O)c2ccc(C)cc2)sc(C)c1C | -6 | 18 | -8.4 | 2 | 0.2% | -1.6
Cc1csc(NC(=O)CSc2ncc(-c3ccccc3)[nH]2)n1 | -16 | -17 | -2.4 | -27 | 2.3% | 1.2
CC1NS(=O)(=O)c2cc([N+](=O)[O-])ccc21 (stereo unspecified) | 2 | . | . | 4 | -0.2% | -0.1
CCC(C)NS(=O)(=O)c1ccc(S(=O)(=O)N(CC(=O)Nc2ccccc2)CC2CCCO2)cc1 (stereo unspecified) | -2 | 35 | -0.6 | -2 | 6.9%[38.3 µM] | 0.4
C=CCn1c(Cc2ccccc2)nc2c(cnn2-c2ccccc2)c1=O | 11 | 7 | 0.9 | 1 | 2.9% | 1.7
COC(=O)c1cc2sccc2n1Cc1ccc(F)cc1Cl | . | 3 | . | . | 2.1% | 0.7
Cn1cc(C(=O)c2ccc(F)cc2)cc1-c1nc2ccccc2n1C | -26 | 35 | -1.0 | -13 | 2.3% | 1.5
CC(C)=CCN1CCN(Cc2ccc(Sc3nncn3C)o2)CC1CCO (stereo unspecified) | 5 | -1 | -2.6 | 5 | 0.8% | -0.8
COc1ccc(N2CCN(C(=O)c3ccc(N4CCCCS4(=O)=O)cc3)CC2)cc1 | 2 | 9 | -2.7 | 0 | 1.3% | -0.9
COc1ccc(OC)c(C(=O)C(=O)c2cc(OC)ccc2OC)c1 | -3 | -2 | -3.2 | -12 | 1.3% | 0.6
O=C(Cc1c(O)c2ccccc2[nH]c1=O)OC1CCCCC1 | -5 | -9 | -4.8 | 3 | 1.0% | 0.4
CCOC(=O)c1c(NC(=O)c2cccs2)sc2c1CC(C)(C)OC2 | -1 | 9 | -3.9 | -16 | 11% | 0.6
